Source: PubChem BioAssay (Broad Institute)
Vaccinia stage = blocks a specific stage of Vaccinia orthopoxvirus infection | Vaccinia-infected cells, mCherry/Venus stage reporter fluorescence; stronger effect = lower value; some inactives read as strong as hits | activity change (mCherry), % (test concentration not listed) | 89,000 compounds, 0.01% hits | AID 1053133;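 active = mCherry past -33% and 40 or more points under the early reporter, replicates agreeing; inconclusive = past -33% without that gap or agreement; tested in A549 cells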;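 also: scaled between vehicle wells and reference inhibitor wells; 23 nL library stock went into each well; one replicate is shown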
Vaccinia stage Venus = second read-out of Vaccinia stage, no call of its own (marks repeat the call); activity change (Venus), %; measured here: Venus reporter, other viral stage;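 negative = less Venus signal; first of two replicates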
An asterisk follows results filed as active; ? = inconclusive; / = not tested or not shown; & = joins results of further samples. This is a subset; rates above refer to the full screens.

SMILES	Vaccinia stage	Vaccinia stage Venus
CCCN(C)C[C@H]1Oc2cc(C#CC(C)(C)O)ccc2S(=O)(=O)N([C@@H](C)CO)C[C@H]1C	19	12
COc1ccc(S(=O)(=O)N(C)C[C@@H]2Oc3ccc(NC(=O)Cn4cnnn4)cc3CC(=O)N([C@@H](C)CO)C[C@@H]2C)cc1	4	3
O=C(C[C@@H]1CC[C@@H]2NC[C@@H](O)COC[C@H]2O1)NCc1ccc(Oc2ccccc2)cc1	7	7
C[C@H]1CN([C@@H](C)CO)C(=O)c2cc(NS(C)(=O)=O)ccc2O[C@@H]1CN(C)S(C)(=O)=O	-1	-4
CC(C)NC(=O)N(C)C[C@@H]1OCCCC[C@H](C)Oc2ccc(NC(=O)Nc3ccc4c(c3)OCO4)cc2C(=O)N([C@@H](C)CO)C[C@H]1C	7	2
COc1ccc2c3c([nH]c2c1)[C@H](CO)N(Cc1ccncc1)CC31CCN(Cc2ccc(-c3ccccn3)cc2)CC1	-16	-6
CC=Cc1ccc2n(c1=O)C[C@@H]1[C@@H](CO)[C@H](C(=O)N(C)C)[C@H]2N1CC1CCCCC1 (mixture of isomers)	5	10
C[C@H](CO)N1C[C@H](C)[C@H](CN(C)Cc2ccccc2)Oc2ncc(-c3cccc(F)c3)cc2C1=O	3&9	-6&1
COc1ccc(S(=O)(=O)N[C@@H]2C=C[C@@H](CC(=O)N3CCC(Cc4ccccc4)CC3)O[C@@H]2CO)cc1	-13	-15
Cc1cc(C(=O)Nc2cccc3c2O[C@@H](CN(C)C(=O)Nc2ccccc2)[C@@H](C)CN([C@H](C)CO)C3=O)n(C)n1	3	7
CN(C)C(=O)c1ccc(-c2ccccc2[C@H]2[C@@H](CO)N(C(=O)C3CCCC3)[C@H]2C#N)cc1	0	5
CC(C)(C)[S@](=O)N1Cc2cc(C(=O)NCCN3CCCC3)nc(-c3cccc(-c4cccc(C#N)c4)c3)c2[C@@H]1CCO	-17	19
C[C@@H]1CN([C@@H](C)CO)C(=O)Cc2cc(N(C)C)ccc2O[C@@H]1CN(C)S(=O)(=O)c1ccc(Cl)cc1	7	2
COc1ccc(S(=O)(=O)N(C)C[C@@H]2OCCCC[C@@H](C)Oc3ccc(NC(=O)Nc4cccc5ccccc45)cc3C(=O)N([C@H](C)CO)C[C@H]2C)cc1	-1	-8
N#C[C@H]1[C@@H](c2ccc(C#CC3CC3)cc2)[C@H](CO)N1C(=O)c1cccc(F)c1	-1	1
COc1cccc(S(=O)(=O)Nc2ccc3c(c2)[C@@H]2C[C@H](CC(=O)NCCc4ccccc4)O[C@H](CO)[C@@H]2O3)c1	12	9
O=C(Cc1ccncc1)N1CC(=O)N2[C@H](C1)[C@@H](c1ccc(C3=CCCC3)cc1)[C@@H]2CO	20	10
O=C(C[C@H]1C[C@@H]2c3cc(NC(=O)Nc4ccccc4F)ccc3O[C@@H]2[C@@H](CO)O1)NCc1ccccn1	7	4
COc1ccc(NC(=O)N(C)C[C@H]2Oc3c(NS(=O)(=O)c4cccs4)cccc3C(=O)N([C@H](C)CO)C[C@H]2C)cc1	3	1
O=C(CCN1CCCCC1)N[C@H]1CC[C@H](CCNS(=O)(=O)c2ccc(Cl)cc2)O[C@@H]1CO	7	7
O=C(C[C@@H]1C[C@@H]2c3cc(NC(=O)CC4CC4)ccc3O[C@@H]2[C@@H](CO)O1)NCCN1CCCCC1	11	6
COc1ccc(CNC(=O)C[C@H]2C=C[C@@H](NC(=O)CN(C)C)[C@H](CO)O2)cc1	12	29
CN(C)C(=O)C[C@@H]1C=C[C@@H](NC(=O)C2CCC2)[C@@H](CO)O1	16	17
COc1ccc(NC(=O)Nc2ccc3c(c2)C(=O)N([C@@H](C)CO)C[C@@H](C)[C@H](CN(C)Cc2ccncc2)OCCCC[C@H](C)O3)cc1	16	16
COC1(C)CN(Cc2ccccc2Br)[C@H](/C=C/c2ccccc2)[C@H](Cc2ccccc2)O1 (stereo partly specified)	-2	0
COc1ccc(S(=O)(=O)Nc2ccc3c(c2)OC[C@H](C)NC[C@H](C)[C@H](OC)CN(C)C3=O)cc1	6	10
CO[C@H]1CN(C)C(=O)c2cc(NC(=O)C3CC3)ccc2OC[C@@H](C)N(CC2CCCC2)C[C@@H]1C	-20	-11
C[C@@H]1CCCCO[C@H](CN(C)C(=O)Nc2ccc3c(c2)OCO3)[C@H](C)CN([C@H](C)CO)C(=O)c2cc(N(C)C)ccc2O1	0	0
CC(C)CC#Cc1cnc2c(c1)C(=O)N([C@H](C)CO)C[C@H](C)[C@@H](CN(C)Cc1cncnc1)O2	-7	-7
CCC(=O)N1[C@H](CO)[C@H](c2ccccc2)C12CN(C(=O)Nc1ccccc1F)C2	-9	0
COc1ccc(CN(C)C[C@@H]2Oc3c(NS(=O)(=O)c4ccccc4)cccc3C(=O)N([C@H](C)CO)C[C@@H]2C)cc1	12	9
C[C@H](CO)N1C[C@H](C)[C@H](CN(C)CC2CCCCC2)OCCCC[C@H](C)Oc2ccc(NS(=O)(=O)c3ccc(F)cc3)cc2C1=O	?	/
N#C[C@@H]1N[C@H](CO)[C@H]1c1ccc(C#CC2CCCCC2)cc1	9	10
Cc1ccccc1S(=O)(=O)N1CCCCN2[C@H](C1)[C@H](c1ccc(-c3ccccc3)cc1)[C@@H]2CO	15	3
C[C@H](CO)N1C[C@H](C)[C@H](CN(C)S(=O)(=O)c2cccs2)Oc2ccc(NC(=O)Cc3ccccc3)cc2CC1=O	-6	2
C[C@H]1CN([C@@H](C)CO)C(=O)c2cc(Br)cnc2O[C@H]1CN(C)C(=O)c1ccccc1	11	14
C[C@@H]1CN([C@@H](C)CO)C(=O)c2cc(C#Cc3ccccc3F)cnc2O[C@@H]1CN(C)C(=O)C1CCC1	-17	-20
O=S(=O)(c1ccc(F)cc1)N1CCCCN2[C@H](CO)[C@@H](c3ccc(C#CC4CC4)cc3)[C@H]2C1	-33	-22
Cc1noc(C)c1NC(=O)N[C@H]1C=C[C@@H](CC(=O)Nc2ccccc2)O[C@@H]1CO	1	0
CCC(=O)N1[C@@H](CO)[C@@H]2c3ccccc3N(S(=O)(=O)c3ccc(F)cc3)C[C@@H]21	7	11
CC(C)NC(=O)N(C)C[C@@H]1Oc2ccc(NC(=O)c3ccncc3)cc2C(=O)N([C@H](C)CO)C[C@@H]1C	12	9
O=C(NCc1ccccc1)[C@H]1[C@H](CO)[C@H]2Cn3c(cccc3=O)[C@@H]1N2C(=O)Cc1ccccn1	3	1
C[C@@H]1CCCCO[C@@H](CN(C)C(=O)c2ccccc2)[C@H](C)CN([C@H](C)CO)C(=O)c2cc(NS(=O)(=O)c3ccccc3)ccc2O1	12	-1
O=C(C[C@@H]1CC[C@@H]2[C@H](COC[C@H](O)CN2C(=O)c2cccnc2)O1)NCc1ccc(Cl)cc1	22	14
C[C@@H](NC(=O)C[C@H]1C[C@@H]2c3cc(NS(=O)(=O)c4ccc(F)cc4)ccc3O[C@@H]2[C@@H](CO)O1)c1ccccc1	-12	2
C[C@@H]1CN([C@@H](C)CO)S(=O)(=O)c2ccc(C#Cc3ccncc3)cc2O[C@@H]1CN(C)S(=O)(=O)c1ccc(F)cc1	?	/
C[C@@H]1CN([C@@H](C)CO)C(=O)c2cccc(NC(=O)C3CCOCC3)c2O[C@H]1CN(C)C(=O)Nc1cccc2ccccc12	21	28
CCN1[C@@H]2c3ccc(-c4cccc(OC)c4)c(=O)n3C[C@H]1[C@H](CO)[C@H]2C(=O)N(C)C	13	6
COc1ccccc1-c1cn(CC[C@@H]2CC[C@@H](NC(=O)c3cnccn3)[C@H](CO)O2)nn1	9	8
Cc1ccc(CN(C)C[C@H]2OCc3cnnn3CCCC(=O)N([C@H](C)CO)C[C@@H]2C)cc1	3	7

One compound at a time (already shown):
Cc1ccc(CN(C)C[C@H]2OCc3cnnn3CCCC(=O)N([C@H](C)CO)C[C@@H]2C)cc1 is listed as Vaccinia stage: 3; Vaccinia stage Venus: 7
O=C(C[C@@H]1CC[C@@H]2[C@H](COC[C@H](O)CN2C(=O)c2cccnc2)O1)NCc1ccc(Cl)cc1 is listed as Vaccinia stage: 22; Vaccinia stage Venus: 14
COc1ccccc1-c1cn(CC[C@@H]2CC[C@@H](NC(=O)c3cnccn3)[C@H](CO)O2)nn1 is listed as Vaccinia stage: 9; Vaccinia stage Venus: 8

Additional structures.
SMILES	Vaccinia stage	Vaccinia stage Venus
C[C@H](CO)N1C[C@H](C)[C@H](CN(C)S(=O)(=O)c2cn(C)cn2)Oc2ncc(C#Cc3ccc(F)cc3)cc2C1=O	17	10
COc1cccc(CN2CCCCN3[C@@H](CO)[C@H](c4ccc(C#Cc5cccnc5)cc4)[C@@H]3C2)c1	-26	-19
Cc1noc(C)c1C(=O)N(C)C[C@@H]1OCc2ccccc2-c2c(n(C)c3ccccc23)C(=O)N([C@H](C)CO)C[C@@H]1C	9	2
COc1ccc(NC(=O)N(C)C[C@H]2OCCCC[C@@H](C)Oc3ccc(NC(=O)CCC(F)(F)F)cc3C(=O)N([C@H](C)CO)C[C@@H]2C)cc1	17	4
CC(C)CC#Cc1cnc2c(c1)C(=O)N([C@H](C)CO)C[C@@H](C)[C@H](CN(C)C(=O)Nc1cccc(F)c1)O2	-20	-11
O=S(=O)(N[C@@H]1CC[C@@H](CCn2cc(-c3cccc(F)c3)nn2)O[C@H]1CO)c1ccc(Cl)cc1	-21	-10
C[C@@H]1CN([C@H](C)CO)C(=O)CCCn2nncc2CO[C@@H]1CN(C)C(=O)Nc1cccc(Oc2ccccn2)c1	15	12
C[C@H]1CCCCO[C@H](CN(C)Cc2ccccc2)[C@@H](C)CN([C@@H](C)CO)C(=O)c2cc(NC(=O)CCC(F)(F)F)ccc2O1	-2	1
N#C[C@H]1[C@H](c2ccccc2-c2ccccc2)[C@@H](CO)N1C(=O)Cc1ccncc1	9	0
C[C@H](CO)N1C[C@H](C)[C@H](CN(C)C(=O)Cc2ccncc2)Oc2cc(C#CC3CCCC3)ccc2S1(=O)=O	?	/
COc1ccc(-c2ccc([C@H]3[C@H](C#N)N(C(=O)NC4CCCCC4)[C@H]3CO)cc2)cc1	?	/
C[C@@H]1CCCCO[C@@H](CN(C)Cc2ccccc2)[C@H](C)CN([C@H](C)CO)C(=O)c2cc(NC(=O)Nc3ccc(C(F)(F)F)cc3)ccc2O1	?	/
COCCNC(=O)c1cc2c(c(-c3cccc(-c4cccc(F)c4)c3)n1)[C@@H](CCO)N([S@](=O)C(C)(C)C)C2	-17	0
CCCNC(=O)N1CCC2(CC1)CN(C(=O)Nc1ccc(F)cc1)[C@H](CO)c1[nH]c3cc(OC)ccc3c12	23	-3
C[C@H](CO)N1C[C@H](C)[C@H](CN(C)S(=O)(=O)c2ccccc2)Oc2ccc(NC(=O)CCC(F)(F)F)cc2C1=O	4	0
C[C@@H]1CN([C@H](C)CO)C(=O)c2cc(NC(=O)Nc3cccc4ccccc34)ccc2O[C@@H](C)CCCCO[C@@H]1CN(C)C(=O)Cc1ccccc1	15	13
CCCNC(=O)N1C[C@H](O)COC[C@@H]2O[C@@H](CC(=O)NCc3ccncn3)CC[C@H]21	6	-7
C[C@H]1CN([C@@H](C)CO)C(=O)c2cc(NS(=O)(=O)c3ccc(Cl)cc3)ccc2O[C@@H]1CN(C)CC1CC1	7	2
O=C(C[C@@H]1C[C@@H]2c3cc(NS(=O)(=O)c4ccc(F)cc4)ccc3O[C@@H]2[C@@H](CO)O1)N1CCCCC1	4	5
O=C(NC1CCCCC1)N1CC(=O)N2[C@H](CO)[C@@H](c3ccc(/C=C/c4ccccc4)cc3)[C@@H]2C1	?	/

Six successive entries already listed:
SMILES	Vaccinia stage	Vaccinia stage Venus
COc1ccc(-c2ccc([C@H]3[C@H](C#N)N(C(=O)NC4CCCCC4)[C@H]3CO)cc2)cc1	?	/
C[C@@H]1CCCCO[C@@H](CN(C)Cc2ccccc2)[C@H](C)CN([C@H](C)CO)C(=O)c2cc(NC(=O)Nc3ccc(C(F)(F)F)cc3)ccc2O1	?	/
COCCNC(=O)c1cc2c(c(-c3cccc(-c4cccc(F)c4)c3)n1)[C@@H](CCO)N([S@](=O)C(C)(C)C)C2	-17	0
CCCNC(=O)N1CCC2(CC1)CN(C(=O)Nc1ccc(F)cc1)[C@H](CO)c1[nH]c3cc(OC)ccc3c12	23	-3
C[C@H](CO)N1C[C@H](C)[C@H](CN(C)S(=O)(=O)c2ccccc2)Oc2ccc(NC(=O)CCC(F)(F)F)cc2C1=O	4	0
C[C@@H]1CN([C@H](C)CO)C(=O)c2cc(NC(=O)Nc3cccc4ccccc34)ccc2O[C@@H](C)CCCCO[C@@H]1CN(C)C(=O)Cc1ccccc1	15	13

Additional results follow:
SMILES	Vaccinia stage	Vaccinia stage Venus
C[C@@H]1CN([C@@H](C)CO)S(=O)(=O)c2ccc(-c3cccc(F)c3)cc2O[C@@H]1CN(C)S(=O)(=O)c1ccccc1	?	/
CO[C@@H]1CN(C)C(=O)c2ccc(NC(=O)NC(C)C)cc2OC[C@H](C)N(C)C[C@@H]1C	18	9
COc1ccc(-c2ccccc2[C@@H]2[C@H](C#N)N(C(=O)C3CCCC3)[C@H]2CO)cc1	2	2
Cc1ccc(-c2cnc3c(c2)C(=O)N([C@H](C)CO)C[C@@H](C)[C@H](CN(C)C)O3)cc1	-5	-9
COc1cccc(NC(=O)N(C)C[C@H]2Oc3ncc(C#Cc4ccccc4)cc3C(=O)N([C@H](C)CO)C[C@@H]2C)c1	-34	-31
CC(=O)N1[C@H](CO)[C@H](c2ccccc2)[C@H]1CN(CC1CCC1)C(=O)CN(C)C	21	18
N#C[C@H]1[C@H](c2ccccc2C2=CCCCC2)[C@@H](CO)N1S(=O)(=O)c1ccccc1	14	14
O=C(c1cccnc1)N1CC(=O)N2[C@H](CO)[C@@H](c3ccc(-c4cccnc4)cc3)[C@@H]2C1	13	10
C[C@@H]1CN([C@H](C)CO)S(=O)(=O)c2ccc(-c3cncnc3)cc2O[C@@H]1CN(C)C(=O)CN(C)C	8	3
CC(C)NC(=O)N(C)C[C@H]1Oc2cc(C#CC3CC3)ccc2S(=O)(=O)N([C@@H](C)CO)C[C@H]1C	9	-3
